# BJeLR viability: MLPCN primary cell-based screen for lethality selective to Ras in HRASV12 cells; BJeLR (HRASV12) viability, CellTiter-Glo ATP luminescence, 48 h; reference of the scale not given here; inhibition, % (concentration not given with the values); actives 0.17% (n = 300,000); AID 1554, 2009;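 active means replicate mean above 50%; inconclusive means above 50% but judged a plate artefact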;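 further: 50 nL library stock added to about 25 µL; numbers are from one replicate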
# Mtb hypoxia inh: PubChem AID 1159583 | actives 0.1% (n = 300,000) | M. tuberculosis hypoxia-regulated fluorescent reporter, fluorescence | fluorescence inhibition, % (test concentration not listed);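 active means 35 to 45% if threefold the growth effect, above 45% if 1.5-fold the growth effect; inactive means the rest, general growth blockers included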;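 further: wells of about 50 µL received 100 nL stock; 0% = vehicle wells and 100% = reference inhibitor wells; whole bacteria with a GFP reporter of the hypoxia response; strong numbers were not always called active; many hits fall short of the cut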
# Sa RN4220 lethal: growth inhibition of S. aureus RN4220, primary screen, OD600 | actives 0.33% (n = 330,000) | 16 h | inhibition, % (test concentration not listed);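 active means z-score of -3 or lower and OD600 up to 0.18 on both plates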;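 further: plate controls were untreated cells for no effect and reference antibiotic for full effect; stock transfer was 100 nL into about 80 µL; one replicate is shown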
# Bead autofluor: counter-screen for toxin protease inhibitors: compound fluorescence | compound autofluorescence counterscreen, microsphere flow cytometry; active compounds read high | AID 624483 | fluorescence intensity (no concentration beside the values) | actives 3.1% (n = 360,000);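 active means at least 3 SD above the mean of all compounds, about 16000 in these data; inconclusive means too few beads counted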;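 further: 100 nL of 1 mM stock went into each well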
# ugtP null kill: growth inhibition of ugtP-null S. aureus, primary screen, RN4220 ugtP deletion, OD600. AID 1259309, 2017. actives 0.54% (n = 330,000). growth inhibition, % (concentration not given with the values). 16 h; some inactives read as strong as hits;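 active means z-score under -3 and OD600 up to 0.15 on both plates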;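 further: plate controls were untreated wells for no effect and antibiotic for full effect; wells of about 80 µL received 100 nL stock; the first replicate is given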
# PrP 5UTR inh: inhibition of PrP 5' UTR reporter expression | cell-based PrP 5' UTR mRNA reporter, plate reader | inhibition, % (concentration not given with the values) | actives 0.35% (n = 340,000) | AID 488862, 2010;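 active means every replicate at 50% or more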;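 further: 0 = median of the neutral control wells; tested in H4 reporter cells; numbers are from one replicate; inactives centre near -14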
# Mtb hypoxia inh growth: also measured in Mtb hypoxia inh; calls as there; growth inhibition, %; measured here: M. tuberculosis growth (absorbance);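 0% = vehicle and 100% = reference antibiotic; read after six days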
# Starred values were filed as active, the others as inactive; u = inconclusive; x = not tested or not shown.
SMILES,BJeLR viability,Mtb hypoxia inh,Mtb hypoxia inh growth,Sa RN4220 lethal,Bead autofluor,ugtP null kill,PrP 5UTR inh
O=C(Nc1ccc(F)cc1)NC1(C(=O)NCc2cccs2)CCCCC1,12,9,2,2.9,12885,7,-27
CCOC(=O)c1nc(Nc2ccc(C(=O)O)cc2)c2ccccc2n1,-14,x,x,-3.3,4833,8,-10
COc1ccc(C(CNC(=O)c2cc(S(=O)(=O)Nc3cccc(C)c3)ccc2C)N2CCOCC2)cc1 (configuration not stated),x,5,13,5.4,3663,4,10
O=C(CN1C(=O)NC2(CCCC2)C1=O)OCCOc1ccccc1Cl,1,-4,-3,-1.8,u,1,-8
Cc1nn(C)c(C)c1NC(=O)c1ccc(S(=O)(=O)N(C)C)cc1,9,8,-2,5.0,7147,9,-4
COc1ccc(N2CCN(CC(=O)c3c(C)n(C)c4ccc(OC)cc34)CC2)cc1,-4,-9,-10,1.4,4517,-2,-4
Cc1ccc(CNc2ccc(N3C(=O)CC(C)C3=O)cc2[N+](=O)[O-])cc1 (configuration not stated),1,-1,6,7.6,2672,6,-22
Cc1ccc(C(=O)CC(=O)COc2ccc(Cl)cc2)cc1,-9,7,10,16,3025,3,-20
COc1cc(CC(=O)OCC(=O)Nc2ccc(Cl)c(S(=O)(=O)N(C)C)c2)cc(OC)c1OC,3,9,2,4.8,3916,21,-24
CCN1CCN(c2ncnc3c2cnn3-c2ccc(Cl)cc2)CC1,-22,11,15,0.2,4195,7,-90
O=C(Nc1ccsc1C(=O)NC1CCCCC1)c1ccccc1,-8,17,1,4.8,20407*,-10,-59
CCCN1C(=O)/C(=C/c2ccccc2OCc2ccc(C(=O)O)cc2)NC1=S,3,7,0,7.2,2662,-9,-11
O=C1N=C(N2CCCCC2)S/C1=C\c1cn[nH]c1-c1ccccc1,5,14,0,7.0,2479,1,-5
Cc1cc(Br)ccc1NC(=O)CN(C)C(=O)c1cccc(S(=O)(=O)N2CCN(C)CC2)c1,x,10,9,-0.1,3939,5,-11
COc1ccc(C=Nc2cccnc2N)cc1,-2,14,7,3.6,3923,5,-20
O=C(COC(=O)CNC(=O)C1CCCCC1)Nc1cccc(F)c1,x,12,1,4.3,3544,3,-12
COCC(C)n1c(SCC(=O)N2CCOCC2)nc2ccccc2c1=O (configuration not stated),x,-2,3,4.5,2677,1,-20
O=[N+]([O-])c1ccc(N=Cc2sc3ccccc3c2O)cc1,12,18,10,3.0,2606,4,-7
COc1ccc(-n2c(=O)c(CCC(=O)N(C)Cc3cccs3)nc3ccccc32)cc1,8,0,-8,2.8,4664,6,-28
Cn1c(SCC(=O)OCC(=O)c2ccccc2)nnc1-c1cccs1,-6,-3,5,5.6,8521,4,-22
c1ccc(OCCn2c(-c3ccco3)nc3ccccc32)cc1,-3,0,1,13,10905,30,-20
COc1ccc(/C=C(\C#N)C(=O)NCc2ccccc2)cc1,3,4,-2,2.7,4057,1,-13
CCOC(=O)C(O)(CCC(O)(C(=O)OCC)C(=O)OCC)C(=O)OCC,17,2,-7,-4.7,8627,-3,0
O=C(Nc1nc(-c2ccccc2)cs1)c1ccccc1F,21,-2,13,-3.2,3911,-13,-24
O=C(NC(=S)NCCCN1CCOCC1)c1ccco1,-12,5,-1,3.2,4509,3,-11
COc1ccc(S(=O)(=O)N(CC(=O)N2CCCCCC2)c2ccccc2OC)cc1,-8,-2,-1,7.3,5841,3,-14
COc1ccc(N(C(=O)c2cccnc2)S(=O)(=O)c2ccc(F)cc2)cc1,2,x,x,6.3,6500,-2,3
COc1ccc(C=NNC(=O)c2cccc([N+](=O)[O-])c2)c2ccccc12,x,-2,4,-1.8,x,-10,x
CC(=O)c1sc(NS(=O)(=O)c2ccc(C)cc2)nc1C,-4,3,8,0.4,3664,1,-25
CCc1ncc(CN2CCC(C(=O)Nc3cccc(-c4cscn4)c3)CC2)cn1,9,-1,4,-2.1,5469,2,-6
CCOc1cc(C(=O)CCC(=O)OCC(=O)Nc2ccc(F)cc2)ccc1O,x,1,-5,-2.4,x,3,-19
Cc1ccn2cc(CCNS(=O)(=O)c3ccc(F)c(C(F)(F)F)c3)nc2c1,-7,5,8,-9.6,5413,-1,-11
COc1ccccc1NC(=O)CCN1CCN(Cc2ccccc2)CC1,4,-7,3,-2.5,9017,-7,-20
NC(=O)C1=C(N=C2CCCCC2)CCCC1,x,4,4,6.1,2896,8,-15
O=C(CCN1C(=O)CSc2ccccc21)Nc1ccc(C(F)(F)F)cc1,x,6,8,0.0,u,-10,-20
CCOc1ccc(N2C(=O)c3ccccc3C2=O)cc1,0,x,x,3.8,4940,3,-9
Cc1ccc(NC(=O)COc2ccc(Br)cn2)cc1,10,0,5,7.9,5182,2,-15
O=C(COC(=O)Cc1ccccc1F)Nc1ccc(Cl)cn1,-1,-6,1,12,4748,18,-20
Cc1ccc(N(Cc2cc3ccc(C)cc3[nH]c2=O)S(=O)(=O)c2ccccc2)c(C)c1,-4,1,10,9.2,4081,1,-5
COc1ccc(C2Nc3ccccc3C(=O)N2NS(C)(=O)=O)cc1OC (configuration not stated),6,12,1,4.6,3609,9,-5
Cc1cc2ccccn2c1C(=O)c1cccc(S(=O)(=O)N2CCOCC2)c1,-1,10,9,5.4,4305,9,-20
O=C(COc1ccc(Br)cc1)NN=C1SCC(=O)N1c1ccc(F)cc1,x,4,9,4.4,x,3,x
O=C(Nc1ncccc1O)c1ccc2c(c1)OCCO2,-2,3,1,2.3,5243,2,-69
COc1ccc(NC(=S)N(Cc2ccc(C)cc2)Cc2ccccn2)cc1,4,13,3,6.8,4201,11,-15
CN(CC(Cc1ccccc1)N(CC(Cc1ccccc1)N(CCC(C)(C)C)N=O)N=O)N=O (configuration not stated),x,9,10,11,x,24,x
CC(C)(C)N(Cc1ccccc1)C(=O)COC(=O)CCc1c[nH]c2ccccc12,1,5,4,1.3,2276,-3,-9
CCOC(=O)C1=C(C(F)(F)F)Nc2ncnn2C1c1ccc(OC)cc1OC (configuration not stated),-1,x,x,4.3,1956,7,-7
CC(N)C(=O)NC(C(=O)N1CCCC1C(=O)NC(c1ccccc1)c1ccccc1)C(C)C (configuration not stated),x,13,0,3.6,3050,-10,-21
CCOc1ccccc1NC(=O)COC(=O)C1CCC1,3,3,-2,4.1,4091,12,-11
CCN(CC)C(=S)Nc1cc(C(=O)OC)ccc1C(=O)OC,1,9,2,6.0,6877,-1,3
Cn1ccnc1C(OC(=O)c1ccc(Cl)cc1)C(F)(F)F (configuration not stated),-7,2,2,0.9,3311,2,-19
CC(C)(C)NC(=O)Cn1c(=O)oc2ccc(Cl)cc21,9,6,8,1.1,4499,2,-8
CCC1Sc2ccccc2N(CC(=O)NC2CCCCC2)C1=O (configuration not stated),6,-1,2,6.1,3073,5,-12
CCCCOc1ccc(-c2ncc(C(=O)O)c(C)n2)cc1,0,x,x,-1.3,4209,5,-134
CCn1ccnc1CNCc1cn(-c2cc(C)ccc2C)nc1-c1ccccc1,0,0,-2,0.1,2285,-2,-2
O=[N+]([O-])c1ccc(C2=Nn3c(Cn4nnc5ccccc54)nnc3SC2)cc1,6,4,7,31,2876,-3,-1
Cc1cc(C)cc(N2C(=O)CSC2c2ccccn2)c1 (configuration not stated),13,12,5,6.2,4185,4,-10
COc1ccc(Cl)cc1NC(=O)CSC1=NN2CCCC(=O)N=C2S1,-1,2,-4,3.0,6025,-2,-10
Cc1ccc(C2CC(c3ccc(Cl)cc3)n3nc(N)nc3N2)cc1 (configuration not stated),3,x,x,2.7,5492,7,-16
CC1CN(c2ccc(Oc3ccccc3)cc2)c2nc3c(c(=O)n(CC(N)=O)c(=O)n3C)n2C1 (configuration not stated),3,2,5,-0.4,6250,-8,2
# Later entries:
SMILES,BJeLR viability,Mtb hypoxia inh,Mtb hypoxia inh growth,Sa RN4220 lethal,Bead autofluor,ugtP null kill,PrP 5UTR inh
CCOc1cc2c(cc1OCC)-n1cccc1C(c1ccc(C(C)C)cc1)NC2 (configuration not stated),-1,-2,-9,7.3,4021,-12,x
CCOc1cccc2cc(C(=O)NCc3cccnc3)c(=O)oc12,x,8,6,6.6,22159*,9,-5
Cc1noc(C)c1C(=O)Nc1cc(S(=O)(=O)N2CCCCC2)ccc1N(C)C,x,-1,-2,0.8,u,4,-8
C#CCOCCOCCOCCNc1nc(N2CCN(C(=O)C(CCC(=O)O)n3cc(C(N)Cc4ccc(O)cc4)nn3)CC2)nc(N2CCN(C(=O)C(CCC(=O)O)n3cc(C(N)C(C)CC)nn3)CC2)n1 (configuration not stated),x,7,6,-0.1,x,5,x
Cc1ccc(C=NNC(=O)CCCOc2ccc(Cl)cc2Cl)cc1,x,4,7,-2.3,x,-16,x
Cc1ccc(NC(=O)C2CCCN(C(=O)Nc3ccc(F)cc3)C2)cc1 (configuration not stated),-6,-9,3,2.6,5823,1,-3
CCOC(=O)CCCNC(=O)c1cncc(Br)c1,0,2,-2,-2.4,u,-2,-32
COC(=O)N/N=C/c1ccc(-c2ccccc2Cl)o1,-8,x,x,x,4236,x,-89
Cc1cc(C=NNC(=O)c2cccs2)c(C)n1-c1ccccc1,x,-5,0,0.7,x,-9,x
Cc1ccc(/C=C(/NC(=O)c2ccccc2)C(=O)NC(Cc2c[nH]c3ccccc23)C(=O)O)cc1 (configuration not stated),7,-1,2,1.1,3788,5,-32
Cc1nn(Cc2c(Cl)cccc2Cl)c(C)c1NC(=O)c1cn(-c2ccccc2)nc1-c1ccccc1,0,4,8,13,3047,0,-12
O=C1S/C(=C\c2ccccc2)C(=O)N1CC(O)Cn1c2ccccc2c2ccccc21 (configuration not stated),5,-7,-1,-4.2,2431,0,-7
CCN(CC)C(=O)CN(Cc1ccccc1)S(=O)(=O)c1ccc(F)cc1,12,24,8,-11,3506,-5,-14
NC(=O)c1c(NC(=O)c2ccco2)sc2c1CCC2,0,-2,7,4.7,11105,-3,-58
COCCCNC(=O)CCn1nc(-c2ccc(Cl)cc2)ccc1=O,8,-1,1,4.5,3742,6,-5
COc1ccc(CCNc2nc(-c3ccncc3)cs2)cc1OC,0,-3,1,-3.6,4537,-7,-33
CCOC(=O)CSC1=Nc2ccccc2C2=NC(CC(=O)NCc3cccs3)C(=O)N12 (configuration not stated),15,6,7,3.1,3194,4,-13
Cc1ccc(-n2nnnc2CNC(=O)c2ccc([N+](=O)[O-])o2)cc1C,21,21,38,3.8,u,12,-29
CC(CCc1ccccc1)NC(=O)COC(=O)c1cc(NS(=O)(=O)c2ccc(Cl)c([N+](=O)[O-])c2)ccc1O (configuration not stated),4,-7,2,-8.6,2062,-1,-19
CCCNC(=O)COC(=O)c1ccc(-c2ccccc2)cc1,9,13,2,-2.6,4359,2,-33
O=C1OC(Nc2nccs2)c2ccccc21 (configuration not stated),-20,x,x,19,2321,-9,-24
COc1ccc(CCNC(=O)c2ccc([N+](=O)[O-])cc2)cc1,-8,19,8,0.0,6156,7,-22
NS(=O)(=O)c1ccc(CCNS(=O)(=O)c2cccc3nsnc23)cc1,6,10,-1,0.9,4804,2,-4
N#Cc1ccc(CSc2nnc(-c3cccnc3)n2-c2ccccc2)cc1,0,14,4,5.0,9885,1,-32

# For reference, some entries already given.
SMILES,BJeLR viability,Mtb hypoxia inh,Mtb hypoxia inh growth,Sa RN4220 lethal,Bead autofluor,ugtP null kill,PrP 5UTR inh
COc1ccc(CCNc2nc(-c3ccncc3)cs2)cc1OC,0,-3,1,-3.6,4537,-7,-33
CCOC(=O)CSC1=Nc2ccccc2C2=NC(CC(=O)NCc3cccs3)C(=O)N12 (configuration not stated),15,6,7,3.1,3194,4,-13
Cc1ccc(-n2nnnc2CNC(=O)c2ccc([N+](=O)[O-])o2)cc1C,21,21,38,3.8,u,12,-29
CC(CCc1ccccc1)NC(=O)COC(=O)c1cc(NS(=O)(=O)c2ccc(Cl)c([N+](=O)[O-])c2)ccc1O (configuration not stated),4,-7,2,-8.6,2062,-1,-19
CCCNC(=O)COC(=O)c1ccc(-c2ccccc2)cc1,9,13,2,-2.6,4359,2,-33
O=C1OC(Nc2nccs2)c2ccccc21 (configuration not stated),-20,x,x,19,2321,-9,-24
